# Source: PubChem BioAssay (National Center for Advancing Translational Sciences (NCATS))
# MARV entry inh: Marburg virus entry inhibition; Potency, µM (highest dose often 37.8 µM), for the others: at the highest dose activity change, negative = inhibition, hits mostly inhibitors; actives 1.8% (n = 300,000); Marburg virus pseudotyped entry inhibition, cell reporter; control for the full effect not named in the record; about a third of the inactives were read at about 46 µM; active = well fitted inhibition curve with a large enough effect; inconclusive = small, poorly fitted or top-dose-only effect, or effect the other way; inactive = flat fitted curve, though single readings scatter; tested in HEK293 cells; about a fifth of its hits are not listed in these tables; further: on the % scale 0 is the no-effect control and ±100 the full control effect; luciferase read-out
# SARS PLpro yeast: blocks SARS-CoV papain-like protease in a yeast assay | S. cerevisiae expressing SARS-CoV PLpro, growth rescue; control for the full effect not named in the record | Potency, µM (top dose mostly 32.9 µM), inactives show top-dose activity, positive = growth rescue | actives 0.19% (n = 330,000); active means well fitted rising curve with a large enough effect; inconclusive means small, poorly fitted or top-dose-only effect; inactive means no such curve, though single readings can be large or run the other way; further: 0% is about no effect; nearly all actives have a fitted effect of over 55% in size; growth read by luminescence after 48 h
# Cruzain inh Det: inhibitors of Trypanosoma cruzi cruzain with detergent; AID 1478; actives 0.43% (n = 200,000); P25779; Potency, µM, without a hit: max response, negative = inhibition, usual class: inhibitors; purified cruzain, Z-FR-AMC fluorescence, 0.01% Triton;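 further: plate controls were neutral wells for no effect and buffer without enzyme for full effect; nearly all actives have a fitted effect of over 40% in size; top concentration of the series not given in the record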
# Target sequence (P25779 123-467 limits assumed): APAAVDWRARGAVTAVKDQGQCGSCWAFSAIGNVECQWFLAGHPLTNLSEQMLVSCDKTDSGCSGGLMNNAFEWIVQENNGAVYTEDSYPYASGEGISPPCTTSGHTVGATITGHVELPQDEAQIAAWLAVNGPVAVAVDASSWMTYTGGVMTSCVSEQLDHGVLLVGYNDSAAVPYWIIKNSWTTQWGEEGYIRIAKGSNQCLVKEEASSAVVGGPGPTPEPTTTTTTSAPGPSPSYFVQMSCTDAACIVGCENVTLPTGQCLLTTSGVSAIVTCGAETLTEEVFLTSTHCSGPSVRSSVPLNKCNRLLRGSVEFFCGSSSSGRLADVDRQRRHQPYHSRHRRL
#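 Compounds were screened in titration against cruzain (1.5 nM) with 0.01% Triton X-100 to counter colloidal aggregation. Activity was the AMC fluorescence increase over 60 s after adding 2 uM Z-FR-AMC at pH 5.5.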
# RE007 growth inh: less growth of the S. pombe RE007 Vpr strain; actives 0.21% (n = 360,000); Potency, µM (titrated, usually from 92.2 µM), for inactives: at the highest dose activity change, negative = less growth; S. pombe RE007 Vpr strain, BacTiter-Glo ATP luminescence, 24 h; control for the full effect not named in the record; active = well fitted falling curve with a large enough effect; inconclusive = small, poorly fitted or top-dose-only effect; inactive = no such curve, though single readings can be large or run the other way;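 further: on the % scale 0 is the no-effect control and ±100 the full control effect; nearly all actives have a fitted effect of over 50% in size; the assay follows cell death caused by Vpr and the record does not say whether a fall means rescue or toxicity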
#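 Fission yeast strain RE007, carrying one chromosomally integrated HIV-1 vpr copy, was seeded at OD 0.01 in PMG+AL medium with 23 nL pinned compound. After 24 h at 30 °C and 99% humidity, viability was read by BacTiter-Glo luminescence.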
# Cruzain inh noDet: inhibitors of Trypanosoma cruzi cruzain without detergent; actives 2.3% (n = 200,000); purified cruzain, Z-FR-AMC fluorescence, no detergent; Potency, µM, for the others: max response, negative = inhibition, actives largely listed as inhibitors; P25779; AID 1476;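 further: plate controls were enzyme without inhibitor for no effect and buffer without enzyme for full effect; nearly all actives have a fitted effect of over 40% in size; top concentration of the series not given in the record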
#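 Detergent-free condition (0.00005% Triton X-100) in acetate buffer pH 5.5 with DTT. 1.5 nM enzyme and compound were pre-mixed 15 min, then 2 uM Z-FR-AMC substrate added; reaction progress from fluorescence change between first and third reads (60 s).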
# NS1 inh: inhibitors of influenza NS1 protein function; S. cerevisiae slowed by influenza A NS1, growth recovery by OD600; Potency, µM (titrated, usually from 46.1 µM), for the others: at the highest dose activity, positive = more growth; actives 0.4% (n = 270,000); active means well fitted rising curve with a large enough effect; inconclusive means small, poorly fitted or top-dose-only effect; inactive means no such curve, though single readings can be large or run the other way; further: nearly all actives have a fitted effect of over 50% in size
#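 Read-out: OD600 growth recovery of NS1-expressing budding yeast. Cells grown overnight at 30C in -URA glucose medium, washed, resuspended and diluted 1:100 in 2% galactose assay medium, pH 6.0. Same strain lacking NS1 served as positive control.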
# StopGo reporter: FMDV 2A StopGo reporter, luciferase signal; actives 1.2% (n = 410,000); Potency, µM (highest dose often 57.9 µM), for inactives: top-dose signal change, negative = less light; human cells with a luciferase reporter of 2A StopGo recoding; control for the full effect not named in the record; AID 1159524; active = well fitted falling curve with a large enough effect; inconclusive = small, poorly fitted or top-dose-only effect; inactive = no such curve, though single readings can be large or run the other way; tested in HEK293T cells; further: on the % scale 0 is the no-effect control and ±100 the full control effect; nearly all actives have a fitted effect of over 45% in size; luciferase light after 4 h
# LASV entry inh: blocks Lassa virus binding to or entry into cells | Potency, µM (titrated, usually from 37.9 µM), inactives show top-dose activity change, negative = inhibition, usual class: inhibitors | actives 1.2% (n = 300,000) | Lassa virus pseudotype entry inhibition, cell reporter; control for the full effect not named in the record; active means well fitted inhibition curve with a large enough effect; inconclusive means small, poorly fitted or top-dose-only effect, or effect the other way; inactive means flat fitted curve, though single readings scatter; tested in HEK293 cells; further: on the % scale 0 is the no-effect control and ±100 the full control effect; nearly all actives have a fitted effect of over 50% in size; luciferase read-out
# * marks the source's active call; other numbers are inactive results; ? = inconclusive; . = no result given; & = joins results of further samples; [ ] = remark or other dose. Unless noted, the call rests on the fitted dose curve; in most records, active means well fitted curve in the direction sought with a large enough effect; inconclusive means small, poorly fitted or top-dose-only effect, or another doubt; inactive means no such curve, though single readings can be large; an effect the other way counts as inactive or inconclusive. Potency means the concentration at half of the fitted maximal effect.
Structure,StopGo reporter,SARS PLpro yeast,LASV entry inh,RE007 growth inh,NS1 inh,Cruzain inh noDet,MARV entry inh,Cruzain inh Det
CCc1ccc(NC(=O)C(CC)n2c(=O)c(-c3ccccc3NC(C)=O)nc3ccccc32)cc1 (stereo not drawn),?,.,14%[46.1 µM],.,.,-13%,3%[46.1 µM],-2.2%
NC(=S)N/N=C/c1cccc(/C=N/NC(N)=S)c1,12%,0%,21%,-13%,0%,.,2%,.
CCn1c(=O)c(C(=O)CN(C)CC(=O)Nc2ccccc2Br)c(N)n(Cc2ccccc2)c1=O,-25%,2%,-22%,-4%,.,.,?,.
COC(=O)c1ccc2c(c1)c(C#Cc1ccccc1)c(-c1ccccc1)n2C,33%[activator],12%,.,0%,.,18µM*,.,-3.0%
O=C(O/N=C/c1ccc2c(c1)OCO2)c1ccccc1Cl,.,-12%,.,.,-14%,-8%,.,-6.2%
CC(C)(CC(=O)O)CC(=O)Nc1ccc2c(c1)ncn2CCc1ccccc1,-5%,0%,18%[46.1 µM],5%,7%,.,15%[46.1 µM],.
CCn1c(SCC(=O)Nc2oc(-c3ccccc3)c(-c3ccccc3)c2C#N)nnc1-c1ccncc1,?,0%,-16%,21%,7%,?,-25%,-1.5%
COc1cc(/C=N/NC(=O)c2ccc(N3CCCC3=O)cc2)ccc1O,2%,-3%,?,4%,-2%,.,-8%,.
CCN(Cc1ccccc1)C(c1ccc(C)cc1)c1nnnn1C(C)(C)C (stereo not drawn),?,-2%,-10%,10%,5%,9%,2%,-5.5%
Cc1cc(NCCCCO)n2c(nc3ccccc32)c1C#N,-24%,3%,?,2%,-4%,-10%,9%,-8.1%
CC12CN3CC(C)(CN(C1)C3c1cccs1)C2=O (stereo not drawn),-8%,1%,8%,0%,-4%,.,-3%[46.1 µM],.
CN(C(=O)C1CCC1C(=O)O)c1nc(-c2ccc(Cl)s2)cs1 (stereo not drawn),0%,0%,3%,-15%,0%,.,?,.
CC(=O)NC(Cc1ccc(F)cc1)C(=O)NC1CCN(C(=O)Nc2ccccc2C)CC1 (stereo not drawn),13%,14%,1%[46.1 µM],-25%,5%,.,-1%[46.1 µM],.
S=C1NCN(Cc2ccco2)CN1c1cccc2ccccc12,-6%,-1%,.,-1%,-4%,.,.,.
O=C(C1CCCO1)N1CCN(C(=S)Nc2ccc(Br)cc2)CC1 (stereo not drawn),49%[activator],-1%,?,-13%,1%,.,5%,.
COCCNC(=O)C1CC2Cn3c(nc4cc(C)c(C)cc43)C2N1C (stereo not drawn),0%,2%,.,-22%,-6%,.,.,.
Cn1c(=O)cc(SCC(=O)N2CCCC2)c2ccccc21,19%,14%,1%,9%,4%,-13%,-5%,-2.3%
O=C(O)c1ccccc1NS(=O)(=O)c1cccc2nsnc12,-9%,1%,.,3%,17%,.,.,.
Cc1ccc(N(CC(=O)NCCSc2ccccn2)S(=O)(=O)c2ccc(F)cc2)cc1,20%,0%,-25%[46.1 µM],4%,-3%,.,-10%[46.1 µM],.
COc1cccc(CN2C(=O)N(C(C)C)C(N(O)C(=O)NC(C)C)C2(C)C)c1OC (stereo not drawn),-4%,1%,7%,6%,-6%,-2%,?,1.2%
Cc1ccc(S(=O)(=O)N(C(=O)c2ccncc2)c2ccc(OC(=O)c3ccncc3)c3ccccc23)c(C)c1,?,-6%,-9%,0%,0%,?,?,0.8%
CCCc1cc(=O)[nH]c(SCc2cccnc2)n1,10%,0%,11%,3%,-2%,-9%,0%,2.8%
CC1CCN(c2ccccc2NC(=O)c2cc3ccccc3o2)CC1,?,1%,-19%,-7%,-5%,.,-20%,.
Cc1ccc(C(C)C)c(OCCn2ccnc2C)c1,-19%,1%,-9%,0%,4%,.,3%,.
CC1N=C2c3ccccc3N=C(SCc3cc(=O)n4cc(Cl)ccc4n3)N2C1=O (stereo not drawn),-12%,-5%,-3%,12%,5%,-22%,12%,-11%
COc1ccccc1OCCn1c(-c2ccc(Br)cc2)nc2ccccc2c1=O,-6%,.,0%[46.1 µM],.,.,-3%,4%[46.1 µM],-1.1%
Brc1ccc(CNCCCSc2nnnn2-c2ccccc2)cc1,-17%,.,23%[46.1 µM],.,.,-12%,6%[46.1 µM],-3.5%
CCCOc1ccc(C2C(=O)N(C3CCCCC3)CC(=O)N2CCCOCC)cc1OC (stereo not drawn),-17%,2%,13%,-14%,1%,?,-8%&-7%,2.2%
Cc1ccccc1N1C(=O)NC(=O)/C(=C/c2ccc(N3CCOCC3)o2)C1=O,-6%,0%,0%,5%,3%,.,?,.
O=C(NCc1ccc(Cl)cc1)[C@@H]1CCCN1S(=O)(=O)c1ccc(Cl)cc1,-16%,-3%,-20%,-2%,.,.,-19%,.
CCN(CC)CCN(Cc1cc2cc(C)cc(C)c2[nH]c1=O)C(=S)NCc1ccco1,-14%,1%,-1%,-5%,11%,0%,?,-4.2%
O=S(=O)(c1cccc(-c2nnc(SC(F)F)n2-c2ccccc2)c1)N1CCCCC1,?,-3%,?,1%,-4%,7%,?,12%
CC(C)CCOc1ccc(/C=N/N2C(=O)CSC2=S)cc1,-1%,1%,12%[46.1 µM],-11%,-3%,.,-1%[46.1 µM],.
O=C(/C=C/c1cccc(OCc2ccccc2)c1)c1cccnc1,-6%,-53%,6%[46.1 µM],5%,-13%,?,1%[46.1 µM],-9.4%
CN(Cc1c(F)cccc1Cl)C(=O)CCc1c[nH]c2ccccc12,35%[activator],-4%,6%[46.1 µM],2%,-5%,.,-6%[46.1 µM],.
COCCN(C(=O)COC(=O)c1cccnc1SC)c1c(N)n(Cc2ccccc2)c(=O)[nH]c1=O,-8%,-1%,-3%,-4%,.,.,?,.
Cc1nc(CC(=O)c2c(C)cc(O)cc2O)cs1,.,-1%,0%,399%,-15%,-4%,4%,1.1%
Cc1ccc(S(=O)(=O)N2CCN(C(=O)c3ccc4ccccc4n3)CC2)c(C)c1,35%[activator],11%,0%,1%,.,.,?,.
COc1cccc(CNC(=O)CSc2cc(C)[nH]c(=O)n2)c1,17%,.,19%[46.1 µM],.,.,?,.,-0.3%
O=C(CSc1nc2ccccc2n1Cc1ccc(F)c(Cl)c1)N1CCN(c2ccc(F)cc2)CC1,?,.,.,.,.,7%,?,-2.7%
CCCC(=O)c1c(NCCO)cc(C)oc1=O,-8%,0%,-14%[46.1 µM],30%,.,.,-5%[46.1 µM],.
Cc1ccccc1NC(=O)CC1NCCNC1=O (stereo not drawn),-5%,.,-1%[46.1 µM],.,.,21%,1%[46.1 µM],-1.5%
C/C(=N\N=C1\NC(=O)C(CC(=O)O)S1)c1ccccn1 (stereo not drawn),0%,1%,1%,-7%,-5%,.,6%[46.1 µM],.
CCCN(c1ccc(OCC)cc1)S(=O)(=O)c1ccc2c(c1)NC(=O)CO2,-10%,3%,.,6%,8%,.,.,.
Cc1ncc([N+](=O)[O-])n1CC(=O)NC1CCCC1,.,7%,-2%,-10%,-2%,-6%,1%,-0.3%
Cc1occc1C(=O)NCCCCNC(=O)c1ccoc1C,-17%,-6%,11%,20%,10%,-6%,-5%,2.0%
Cc1ccc(C)c(OCCn2c(-c3ccc(Cl)cc3)nc3ccccc3c2=O)c1C,-7%,.,0%[46.1 µM],.,.,16%,-2%[46.1 µM],0.8%
Cc1c(NC(=O)c2cccs2)c(=O)n(-c2ccccc2)n1C,-14%,0%,-9%,16%,1%,.,8%[46.1 µM],.
CCOc1ccc(NC(=O)c2sc3ccccc3c2Cl)cc1,11%,.,28%[46.1 µM],.,.,5%,.,-0.7%
COc1ccc(C2/C=C\CC(OCc3ccccc3)CC(=O)N2Cc2cccc(F)c2)cc1 (stereo not drawn),-21%,-4%,.,-7%,.,1%,.,-1.5%
Cc1ccc(C)c(NC2CCCCC2NS(=O)(=O)c2ccccc2)c1 (stereo not drawn),-7%,-13%,.,-11%,-12%,.,.,.
Cc1ccc(N2C(=O)CS(=O)(=O)C23C(=O)N(Cc2cccc(F)c2)c2ccccc23)cc1Cl (stereo not drawn),-23%,.,-11%[46.1 µM],.,.,2µM*,?,-5.1%
Cn1c(Cn2nnc3ccccc32)nnc1SCC(=O)Nc1ccc2c(c1)OCO2,-11%,10%,-13%,-9%,-2%,8%,-3%,3.0%
N#C/C(=C(/O)CCl)c1nc2c(s1)CCc1ccccc1-2,25µM*,-12%,12%,3%,-28%,.,21%[46.1 µM],.
Cc1noc(C)c1CSCC(=O)Nc1cc(C(F)(F)F)ccc1N1CCCCC1,-24%,-13%,?,-5%,.,.,?,.
CC(=O)Nc1ccc(NC(=O)C(C)OC(=O)c2cccs2)cc1 (stereo not drawn),0%,11%,0%,10%,.,.,-19%,.
O=C(O)CCS(=O)(=O)Cc1cccc(Cl)c1,4%,-3%,1%,-3%,-13%,-2%,-6%,6.3%
O=C(CSc1nc2ccccc2n1Cc1ccc(Cl)cc1)N/N=C/c1ccc(C(=O)O)cc1,-14%,-1%,-1%,-7%,.,.,0%[46.1 µM],.
CCOCCCNCc1cccc(OCc2ccc(F)cc2)c1,?,1%,-9%,4%,-10%,-1%,?,2.5%
O=c1c2ccccc2n2c(=S)[nH]nc2n1-c1ccccc1,-16%,-4%,?,-2%,2%,.,4%[46.1 µM],.
CC1CCN(C(=O)c2ccc(NC(=O)c3nsc4ccccc34)cc2)CC1,10%,.,12%[46.1 µM],.,.,-16%,.,-6.9%
O=C(Nc1nccs1)c1sc2ccccc2c1Cl,0%,-8%,13µM*,-26%,3%,-7%,7.1µM*,-1.9%
